# H5N1 CPE = MDCK cell protection from H5N1 avian flu | cytopathic effect, luminescence, 72 h; hits give high values; no value below 0 was filed and about half of the inactive calls have no number; reference of the scale not given here | inhibition, % at 50 µM | actives 0.07% (n = 96,000) | AID 740; in the data active means inhibition above about 25%
# An asterisk follows results filed as active; i = inactive; & = joins results of further samples. A portion of the library; rates above refer to the full screens.
SMILES	H5N1 CPE
Cc1cc(C(=O)OCC(=O)N2c3ccccc3CC2C)c(C)o1 (stereo unspecified)	i
O=C1Nc2ccccc2C(O)(C(=O)NCc2ccco2)N1c1ccc(Cl)c(Cl)c1 (stereo unspecified)	1.7
CCOc1ccc(CN2C(=O)c3ccccc3C2C(=O)NCc2cccnc2)cc1 (stereo unspecified)	0.9
CCCc1c(C)c2ccccc2[nH]c1=O	i
COc1ccc2c(c1)CCCC21NC(=O)NC1=O (stereo unspecified)	i
CC(C)NC(=O)c1sc2nc(-c3cccs3)cc(-c3cccs3)c2c1N	i
COc1ccc(C(=O)Nn2c(C)ccc2C)cc1OC	0.1
Cc1ccc(C(C)NC(=O)c2c(C)noc2C)cc1C (stereo unspecified)	1.5
CCn1c(Cc2ccccc2)nnc1SCC(=O)c1cccc([N+](=O)[O-])c1	2.9
CCOc1ccc(N(CC(=O)NCc2ccccc2)S(=O)(=O)c2c(C)noc2C)cc1	i
COc1ccc(-c2noc(CCC(=O)Nc3cccnc3)n2)cc1OC	i
COC(=O)C(C)(C(=O)OC)c1ccccc1[N+](=O)[O-]	i
Cc1nn(Cc2ccc(Cl)cc2Cl)c(C)c1NC(=O)NC12CC3CC(CC(C3)C1)C2	i
COc1cc(-n2c(=O)c3ccccc3n(Cc3ccccc3)c2=O)cc(OC)c1OC	i
Cc1ccc(-n2ncc3c(=O)n(CC#N)cnc32)cc1	1.9
COC(=O)c1sc(S(=O)(=O)N2CCCCC2C(=O)O)c(C(=O)OC)c1C (stereo unspecified)	1.2
CCn1c2ccccc2c2cc(C3C(C#N)=C(N)Oc4n[nH]c(COC)c43)ccc21 (stereo unspecified)	i
COc1ccc(CCNC(=O)C2CCCCC2C(=O)O)cc1OC (stereo unspecified)	i
C=CCn1c(=O)c2ccccc2n2c(SCc3csc(-c4ccccc4)n3)nnc12	1.2
CC(=O)Nc1ccccc1NS(=O)(=O)c1ccc(Cl)cc1	0.3
Cc1ccc(S(=O)(=O)N(CC(=O)N/N=C/c2cccc3c2OCCO3)c2ccccc2F)cc1	i
Cn1c2ccccc2c2cc(C(=O)O)ccc21	i
c1ccc(-c2nnc(-c3ccco3)o2)cc1	0.7
COc1ccc(Cn2c(=O)[nH]c3cc(C(=O)NCCCN4CCCC4=O)ccc3c2=O)cc1	i
COc1ccc(CNC(=O)C2CCN(S(=O)(=O)N3CCOCC3)CC2)cc1	i
O=C(CN(c1ccc(F)cc1)S(=O)(=O)c1ccc2c(c1)OCCO2)NCc1cccnc1	i
COc1ccc(CNC(=O)c2cnc(C)cn2)cc1	i
COc1ccc2[nH]c(=O)c(CN(Cc3ccccc3)Cc3nnnn3CC3CCCO3)cc2c1 (stereo unspecified)	1.1
O=C(C1CCC1)N1CCc2cc(S(=O)(=O)N3CCCCC3)ccc21	0.8
C=CCn1c(Cc2csc(N)n2)nnc1SCC(=O)Nc1ccc(C(=O)OCC)cc1	0.4
O=C(C(Cl)Cl)N1c2ccccc2OCC1c1ccccc1 (stereo unspecified)	0.6
Cc1ccc(-n2nnnc2SCC(=O)Nc2c(C)n(C)n(-c3ccccc3)c2=O)cc1	i
COc1cc2c(cc1OC)CN(C(=O)c1cc3ccccc3oc1=O)CC2	i
Cc1cc2oc(=O)cc(CN3CCCc4ccccc43)c2cc1C	i
COc1cc([N+](=O)[O-])cc(CN2CCCCC2)c1O	0.2
CCOc1ccc(C(C)=O)cc1CC(C(N)=O)C(N)=O	i
CCc1c(C)sc(NC(=O)C2CC2c2ccccc2)c1C(N)=O (stereo unspecified)	i
CC(C)Sc1cc(N2CCCC2)nc(-c2ccc(F)cc2)n1	3.8
Cc1ccc(C)c2[nH]c(=O)c(CN(CCN3CCCC3)C(=O)Nc3cccc(Cl)c3)cc12	i
COC(=O)/C(C(C)=O)=C(/C=C/C=C/N(C)C)N(C)C	i
CCCn1nnnc1NC(=O)c1cccs1	0.5
CCn1c(SCC(=O)Nc2cccc(C(C)=O)c2)nnc1C(C)C	0.6
CCOC(=O)N1CCC(NCCNC(=O)c2cccs2)CC1	0.2
CC(=O)OC1(c2ccccc2)CCN(C)C2CCCCC21 (stereo unspecified)	i
CCc1ccc2c(c1)C(C)=CC(C)(C)N2	i
CCCn1c(O)c(CN2CCCC(C)C2)c(C)c(C#N)c1=O (stereo unspecified)	i
Cc1sc(-c2ccncc2)nc1OC(=O)c1ccccc1	0.7
COc1ccc(C2C3=C(CCCC3=O)Nc3nc(SCc4ccc(C(=O)O)cc4)nn32)cc1OC (stereo unspecified)	1.9
O=C(Nc1nnc(-c2ccco2)s1)c1ccccc1	i
O=C(NCCN1CCN(c2ccccc2)CC1)C1(S(=O)(=O)c2ccc(Cl)cc2)CC1	i

# Going on with the list:
SMILES	H5N1 CPE
Cc1cccc(N2CCc3c2nc2ccccc2c3N)c1	1.1&0.6
COc1cccc(NS(=O)(=O)c2ccc3c(c2)CCCN3C(C)=O)c1	0.7
COc1cccc(/C=N/NC(=O)CC(=O)NCCc2ccc(OC)c(OC)c2)c1	0.1
CN(C(=O)CSc1nc(C2CC2)nc2ccccc12)c1nc(-c2ccccc2)cs1	0.9
COc1cccc(-c2cc(C(F)(F)F)c3c(N)c(C#N)sc3n2)c1	i
Cc1ccc(NC(=O)C2CCCN2S(=O)(=O)c2ccc3c(c2)CCC(=O)N3)cc1Cl (stereo unspecified)	8.5
CC(=O)NC(CC(=O)Nc1cccc(S(=O)(=O)N2CCCCC2)c1)c1ccccc1 (stereo unspecified)	0.8
COc1cccc(NC(=O)Nc2ccc3c(c2)N(C)C(=O)CS3)c1	i
Cc1[nH]nc2c1C(c1ccoc1)C(C#N)=C(N)O2 (stereo unspecified)	i
Cc1ccc(-c2nnn(CC(=O)Nc3ccccc3N3CCOCC3)n2)cc1	i
COc1cccc(/C=N/n2nnc3c(cnn3-c3ccccc3)c2=O)c1	0.2
N#CCC1c2ccccc2CCN1C(=O)Nc1cccc(Cl)c1 (stereo unspecified)	i
CCN1C(=O)C2C(C1=O)N1C(c3cccs3)C3C(=O)N(CC)C(=O)C3N1C2c1cccs1 (stereo unspecified)	i
CC(=O)c1ccc(NC(=O)CN2CCN(c3ncccn3)CC2)cc1	i
Cn1c(N/N=C/c2cccs2)cc(=O)n(C)c1=O	5.7
COc1ccc(C(=O)NC(C)c2cc(OC)c(OC)cc2Br)cc1 (stereo unspecified)	1.0
C=CCNC(=O)CN(c1cccc(Br)c1)S(C)(=O)=O	0.4
Cc1ccc(C)c(N2CCN(C(c3ccncc3)c3nnnn3Cc3ccccc3)CC2)c1 (stereo unspecified)	4.5
CNC(=O)c1cc2cc(OC)ccc2n1CCN(C)C	i
CCCCC(=O)Nc1ccc(C(=O)OC2CCCCC2)cc1	1.5
O=C(NC1CC2CCC(C1)N2C(=O)NCc1ccccc1)C1CC1 (stereo unspecified)	i
CCOc1cc(/C=C2\CCC/C(=C\c3cc(Cl)c(O)c(OCC)c3)C2=O)cc(Cl)c1O	3.9
Cc1c(C(=O)N2CC(C)OC(C)C2)oc2ccccc12 (stereo unspecified)	0.3
CC(C)CNS(=O)(=O)c1ccc(CCC(=O)NCc2cccnc2)cc1	i
O=[N+]([O-])c1cnccc1Nc1ccccc1	0.1
C=CCn1c(-c2ccccc2)nc(=S)c2c1CC(C)(C)OC2	0.3
COc1cccc(/C(O)=C2/C(=O)C(=O)N(c3ccccn3)C2c2ccc(OC)c(OC)c2)c1 (stereo unspecified)	i
CC1(C)CC(=O)C=C(NCCN2CCN(C(=O)Nc3ccc(Cl)c(Cl)c3)CC2)C1	i
CCOc1ccc(OCC)c(NC(=O)CN2CCN(c3ccc(C)cc3C)CC2)c1	1.1
COc1ccc(-n2nc(C(=O)NCC(=O)Nc3cccc(C)n3)c3ccccc3c2=O)cc1	i

# An excerpt of these results, with each value named.
Molecule: O=C(NC1CC2CCC(C1)N2C(=O)NCc1ccccc1)C1CC1 (stereo unspecified)
  H5N1 CPE: i
Molecule: CC(C)CNS(=O)(=O)c1ccc(CCC(=O)NCc2cccnc2)cc1
  H5N1 CPE: i
Molecule: CCOc1ccc(OCC)c(NC(=O)CN2CCN(c3ccc(C)cc3C)CC2)c1
  H5N1 CPE: 1.1
Molecule: C=CCn1c(-c2ccccc2)nc(=S)c2c1CC(C)(C)OC2
  H5N1 CPE: 0.3

# Continued.
SMILES	H5N1 CPE
COc1ccccc1NC(=O)COC(=O)c1ccc(S(=O)(=O)NCc2ccco2)cc1	0.3
CCNc1oc(-c2cccc3ccccc23)nc1C#N	2.1
O=C(O)c1ccc(COc2ccc3c4c(c(=O)oc3c2)CCC4)o1	0.4
COc1ccc(NC(=O)CSc2nc3c(c(=O)n2-c2ccccc2)SCC3)c(OC)c1	0.2
COc1ccc(S(=O)(=O)NCc2cn3c(C)csc3n2)cc1F	0.3
CCOCCCNC(=O)c1ccc2c(c1)ncn2C1CCCC1	1.1
Cc1cccc(C2CC(c3ccc(Cl)cc3)Nc3nc(N)nn32)c1 (stereo unspecified)	0.4
CC(C)c1ccc(C(=O)N/N=C/c2cccc(Cl)c2Cl)cc1	1.5
Cc1ccccc1-n1c(SCC(N)=O)nc2sc(-c3ccccc3)cc2c1=O	i
Cc1ccc(NCCC(=O)c2ccc(Cl)c(Cl)c2)cc1	i

# Entries listed so far containing a nitro group on carbon, in the order listed:
SMILES	H5N1 CPE
CCn1c(Cc2ccccc2)nnc1SCC(=O)c1cccc([N+](=O)[O-])c1	2.9
COC(=O)C(C)(C(=O)OC)c1ccccc1[N+](=O)[O-]	i
COc1cc([N+](=O)[O-])cc(CN2CCCCC2)c1O	0.2
O=[N+]([O-])c1cnccc1Nc1ccccc1	0.1

# Next section
SMILES	H5N1 CPE
CC(C)(C)C1CCC2(CC1)Nc1cccc3cccc(c13)N2	0.7
CC(=O)c1c(C)[nH]c(C(=O)OCC(=O)C(C)(C)C)c1C	i
CSc1ccccc1C(=O)NC1CCCCC1	1.8
Cc1[nH]c2ccccc2c1C1(O)C(=O)N(C(C)C)c2ccccc21 (stereo unspecified)	i
Cc1cc(C)n2cc(CSc3nnnn3C)nc2n1	i
COc1cccc(C2CC(=O)NC(SC)=C2C#N)c1 (stereo unspecified)	0.5
COc1cc(OC)cc(C(=O)Nc2cccc(C(C)=O)c2)c1	i
CCn1c(O)c(/C=N/N=C2CCCC2)c2ccc(C3=NNC(=O)CC3)cc21	i
CCN1CCN(C(=O)c2ccc(CSc3ccc(C)cc3)cc2)CC1	i
CC(NS(=O)(=O)c1ccc(Cl)cc1)C(=O)NCc1ccco1 (stereo unspecified)	0.4
O=C(Cn1cnc2c(nnn2Cc2ccc(Cl)cc2)c1=O)NC1CCCC1	i
O=C(NCc1cccs1)C1CCN(S(=O)(=O)c2cccc3cccnc23)CC1	0.1
Cn1c(-c2ccc(Br)o2)nc2ccccc21	i
CCCCNC(=O)C(C#N)c1nc2ccccc2nc1N1CCCC1 (stereo unspecified)	0.4
Cc1cccc(C)c1-n1nnnc1SCSc1nnnn1-c1c(C)cccc1C	i
COc1cccc(NC(=O)Nc2c(C)n(C)n(-c3ccccc3)c2=O)c1	0.1
CC(=O)Nc1ccc(S(=O)(=O)NC(CC(=O)N2CCC3(CC2)OCCO3)C(C)C)cc1 (stereo unspecified)	2.1
CC(=O)NCc1ccc2[nH]c(C)cc2c1	0.1
CCSc1cc(N2CCCC2)nc(-c2ccccc2)n1	i
Cc1ccc(C(c2ccc(C)o2)c2cccc([N+](=O)[O-])c2O)o1	i
COc1ccccc1-c1nnc(Nc2nc3c(OC)cccc3s2)o1	i
O=C(Nc1ccc2ccccc2c1)c1cn(-c2ccccc2)nc1-c1cccs1	4.5
Cc1cc(C)cc(-n2cnc3cc(C(=O)O)ccc32)c1	0.8
CSc1nc(-c2ccco2)nn1C(=O)c1ccccc1	i
Cc1[nH]c2ccccc2c1C(=O)CSc1nc2cc(S(=O)(=O)N3CCCCC3)ccc2o1	0.3
O=c1c2cc(-c3ccccc3)sc2ncn1/N=C/c1ccco1	i
CCn1c(SCC(=O)Nc2cc(C)ccc2C)nnc1-c1cnccn1	i
Fc1cnc(N2CCOCC2)nc1NCc1ccccc1	0.7
CCOc1ccc2nc(SCc3ccc(C(=O)OC)o3)[nH]c2c1	i
CCN(CC)S(=O)(=O)c1cc(Br)c(C)cc1OC	1.5
CCOC(=O)N1CCN(c2c(N3CCOCC3)c(=O)c2=O)CC1	1.2
Cc1csc(=NC(=O)c2ccccc2)n1Cc1ccco1	0.3
O=C(Nc1cccc(F)c1)C1C2C=CC3(CN(CCCN4CCOCC4)C(=O)C13)O2 (stereo unspecified)	i
COC(=O)c1sccc1NC(=O)c1cc2c(s1)CCCC2	1.8
Cc1nn(Cc2cccc(C(=O)N3N=C(C(F)F)CC3(O)C(F)F)c2)c(C)c1[N+](=O)[O-] (stereo unspecified)	3.1
Cc1ccc(S(=O)(=O)NC2=NCN(Cc3ccccc3)CN2)cc1	1.4
O=C(O)CN(Cc1ccco1)S(=O)(=O)c1ccccc1	i
O=c1cnnc(SCCc2ccccc2)[nH]1	0.3
Cc1nn(-c2ccccc2)c(C)c1NC(=O)COc1ccc2ccccc2c1	i
O=C(O)c1cccc(NCc2ccncc2)c1	i
CC(C)c1nc(NCc2ccccc2)c(C#N)c2c1CCCC2	2.5
Cc1cc(OCC(=O)N2CCCC2)cc(C)c1Cl	i
CCOc1ccc(-c2nnc(-c3ccco3)o2)cc1	0.1
CCN(CC)CCN1C(=O)C2C3c4ccccc4C(c4ccccc43)C2C1=O (stereo unspecified)	i
Cc1ccc(/C=N/c2sc3c(c2C#N)CCCCC3)o1	1.3
CCc1ccc(OCc2nnc(SCCN3CCOCC3)n2CC)cc1	0.4
Cc1nnnn1-c1cccc(C(=O)O)c1	0.9

# Source: PubChem BioAssay
